High-throughput results from PubChem.
VDR inhibitor – Inhibitors of the vitamin D receptor (VDR): qHTS | Potency, µM, inactives show max response, negative = inhibition, usual class: inhibitors | VDR-SRC2-3 peptide fluorescence polarization, 2 h | hit rate 0.93% among 400,000; active = well fitted inhibition curve with a large enough effect; inconclusive = small, poorly fitted or top-dose-only effect, or another doubt; inactive = no such curve, though single readings can be large or run the other way; also: series mostly up to about 120 µM
Target sequence (P11473 whole entry, looked up): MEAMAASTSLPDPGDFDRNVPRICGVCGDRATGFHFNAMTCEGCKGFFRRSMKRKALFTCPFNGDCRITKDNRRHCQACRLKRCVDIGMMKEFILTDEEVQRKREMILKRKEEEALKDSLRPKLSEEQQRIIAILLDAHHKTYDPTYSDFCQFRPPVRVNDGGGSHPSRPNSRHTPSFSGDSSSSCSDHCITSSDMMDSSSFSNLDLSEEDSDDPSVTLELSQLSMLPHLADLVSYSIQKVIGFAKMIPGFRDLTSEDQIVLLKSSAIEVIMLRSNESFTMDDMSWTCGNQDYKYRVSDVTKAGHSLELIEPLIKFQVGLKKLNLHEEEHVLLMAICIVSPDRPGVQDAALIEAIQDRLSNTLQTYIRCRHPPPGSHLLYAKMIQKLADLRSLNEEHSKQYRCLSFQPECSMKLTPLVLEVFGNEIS
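Fluorescence polarization assay measuring small-molecule disruption of VDR binding to the coregulator peptide SRC2-3. Compounds were pin-transferred (23 nl) into the reagent mix and incubated 2 h at room temperature before reading.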
* hit, by the source's call; ? = inconclusive; & = joins results of further samples; [ ] = remark or other dose. % is scaled to controls: 0 for no effect and ±100 for the full control effect; potency is read from the fitted curve at half-maximal effect. These rows are one share of the data; count on the stated rates, not on these rows.

Structure	VDR inhibitor
O=C(Nc1ccccn1)Nc1ccccc1Cl	-11%
N#Cc1ccc(COc2cccc3cccnc23)cc1	13%
COC(=O)[C@H](CC(C)C)NC(=O)NC1CCCc2ccccc21 (some centres undefined)	17%
CCc1cc(=O)[nH]c(SC/C=C/c2ccccc2)n1	4%
O=C(Nc1ccccc1)c1ccc(=O)n(Cc2ccc(F)c(F)c2)c1	11%
CC(Sc1oc(-c2cccs2)nc1S(=O)(=O)c1ccccc1)c1ccccc1 (centres undefined)	14%
O=C(CCc1ccc(S(=O)(=O)NCCc2ccccc2)cc1)NCc1ccco1	-15%
CCOC(=O)Cn1c(CN(C)Cc2ccccc2)nc2c1c(=O)n(C)c(=O)n2C	-8%
CCCc1cc(C(=O)Nc2ccc(C(=O)c3ccc(C)cc3)cc2)n(C)n1	12%
CCC(Sc1nc2ccccc2c2nc(CCn3c(C)nc4ccccc43)nn12)C(=O)Nc1ccc(F)cc1 (centres undefined)	-9%
NC(CSC1(c2ccc(Cl)cc2)c2ccccc2-c2ccccc21)C(=O)O (centres undefined)	-6%
COc1ccc(S(=O)(=O)NC2(C(F)(F)F)NC(=O)N(CCc3ccccc3)C2=O)cc1 (centres undefined)	-6%&9%
O=C(CN1C(=O)C2CC=CCC2C1=O)Nc1ccc(S(=O)(=O)Nc2nccs2)cc1 (centres undefined)	3%
COc1ccc2cc(C(=O)C3CCCN(C(=O)c4ccnn4C)C3)ccc2c1 (centres undefined)	-11%
CCOC(=O)c1c(Nc2nc(C)c(C(=O)NC)s2)sc(C)c1C	7%
COc1cccc(-c2ccc3ncnc(NCc4ccc(OC)cc4OC)c3c2)c1	-10%
CC(CN1CCN(C/C=C/c2ccccc2)CC1)c1ccccc1 (centres undefined)	-4%
COc1ccc(CN(CC(=O)NC2CCCC2)C(=O)c2csnn2)cc1	-3%
CCN(CC)C(=O)c1cccc(C)c1	1%&-3%
Brc1cnc(N2CCCC2)nc1N1CCCCC1	-9%
CCOc1ccc2nc(SC3CC(=O)N(c4ccc(OC)cc4OC)C3=O)sc2c1 (centres undefined)	5%
Cn1c(CCN2CCOCC2)nc2cc(NC(=O)COc3ccccc3)ccc21	-7%
Cc1cc(C)n2nc(C(=O)OCC(=O)c3c[nH]c4ccccc34)nc2n1	-1%
CN(C)S(=O)(=O)c1cccc(N=c2scc(-c3ccc4c(c3)NC(=O)CO4)n2CC2CCCO2)c1 (centres undefined)	-1%
O=C(CNC(=O)OCc1ccccc1)NC1CCCCNC1=O (centres undefined)	6%
Cc1cc(NC(=O)c2ccc(Cl)cc2)n(-c2ccccc2)n1	-9%
Cc1ccc(OCc2cc(C(=O)NCCc3cccnc3)no2)cc1C	-14%
COc1cc(Cl)c(C)cc1NC(=O)CSCC#N	-1%
C=CCNC(=O)c1c(Br)cnn1-c1ccc(C)cc1	-8%
COc1ccccc1NC(=O)COC(=O)CCC(=O)c1cccs1	-5%
Cc1nnc(SCC2CCCO2)n1-c1ccccc1 (centres undefined)	14%
CC(C)(C)c1cc(-c2ccccc2)no1	18%
CCCCCCCCCCC[C@@H](C[C@@H]1OC(=O)[C@H]1CCCCCC)OC(=O)[C@H](CC(C)C)NC=O	2%&0%
CCc1ccc(S(=O)(=O)Nc2cc(-c3cn4ccccc4n3)ccc2C)cc1	-4%
O=c1[nH]c(=S)[nH]c2nccnc12	9%
NS(=O)(=O)c1ccc(NC(=S)Nc2ccc(F)c(F)c2)cc1	-2%
O=C(O)C1CCCN1C(=O)Nc1ccc(F)cc1 (centres undefined)	-14%
CC(=O)Nc1ccc(-c2ccnc(-c3ccc(NC(C)=O)cc3)n2)cc1	-7%
COc1ccc(S(=O)(=O)Nc2ccc3c(c2)C(=O)N([C@@H](C)CO)C[C@H](C)[C@H](CN(C)CC2CC2)O3)cc1	2%
CCOc1ccccc1NC(=O)CSc1nnc(Cc2ccc(OC)cc2)c(=O)n1N	4%

Arranged by the number under VDR inhibitor (low to high): some entries from above.
Structure	VDR inhibitor
O=C(O)C1CCCN1C(=O)Nc1ccc(F)cc1 (centres undefined)	-14%
COc1ccc(S(=O)(=O)Nc2ccc3c(c2)C(=O)N([C@@H](C)CO)C[C@H](C)[C@H](CN(C)CC2CC2)O3)cc1	2%
CCOc1ccccc1NC(=O)CSc1nnc(Cc2ccc(OC)cc2)c(=O)n1N	4%
O=c1[nH]c(=S)[nH]c2nccnc12	9%
Cc1nnc(SCC2CCCO2)n1-c1ccccc1 (centres undefined)	14%
CC(C)(C)c1cc(-c2ccccc2)no1	18%

Next part:
Structure	VDR inhibitor
CCOC(=O)N1CCN(S(=O)(=O)c2ccc(C(=O)N(CCCN(C)C)c3nc4ccc(CC)cc4s3)cc2)CC1	13%
CN(C)C(CNc1ccc(C(F)(F)F)cc1[N+](=O)[O-])c1ccccc1 (centres undefined)	-18%
Cc1ccc([C@@H]2[C@@H]3C(=O)N(C)C(=O)[C@@H]3[C@]3(Cc4ccccc4)C(=O)N(CCO)CC(=O)N23)o1	4%
CCOC(=O)C1=CN(CC)S(=O)(=O)NC1c1ccccc1 (centres undefined)	8%
CCCN(CC(=O)Nc1ccccc1OC)C(=O)c1ccc2[nH]c3c(c2c1)CC(C)CC3 (centres undefined)	10%
CC(C)C(=O)N1CCN(c2ccc([N+](=O)[O-])c(NC(C)c3ccccc3)c2)CC1 (centres undefined)	?
CCc1nccn1CCC(=O)NC1CCCc2c1cnn2-c1ccc(F)cc1F (centres undefined)	-4%
CN(C)c1ccc(-c2nn3c(-c4ccccc4Cl)nnc3s2)cc1	-10%
COc1ccc(-c2nc3cnccn3c2NCc2ccccc2)cc1SC1CCCCC1	-4%
O=C(NC1CCN(Cc2ccccc2)CC1)c1cccc(S(=O)(=O)Nc2ccc(F)cc2)c1	111%[activator]
COC(=O)c1cc(S(=O)(=O)N2CCCC2)c(Cl)cc1Cl	5%
Cc1ccc(NC(=O)N2CCN(Cc3ccc4c(c3)OCO4)CC2)cc1	?
COc1ccc(CCNC(=O)C2CCCN2C(=O)Nc2cccc(OC)c2)cc1 (centres undefined)	-18%
COc1ccc(CC(=O)OCC(=O)N(C)C2CCS(=O)(=O)C2)cc1OC (centres undefined)	-8%
Cn1c(SCC(=O)Nc2ccc(C(N)=O)cc2)nc2c(c1=O)SCC2	9%
CCOC(=O)N1CCN(S(=O)(=O)c2cc(OCC(N)=O)c(C)cc2Cl)CC1	-14%
COc1ccccc1-c1ccc(Nc2cccc(C(F)(F)F)c2)nn1	9%
Cn1c(N)c(C(=O)COC(=O)COc2ccccc2Cl)c(=O)n(C)c1=O	-1%
O=C(COc1ccc([N+](=O)[O-])cc1)Nc1cccc2cccnc12	18%
Clc1ccc(COn2ccnc2)cc1Cl	-16%

Of the compounds above, two have a furan ring, fused or not.
Structure	VDR inhibitor
O=C(CCc1ccc(S(=O)(=O)NCCc2ccccc2)cc1)NCc1ccco1	-15%
Cc1ccc([C@@H]2[C@@H]3C(=O)N(C)C(=O)[C@@H]3[C@]3(Cc4ccccc4)C(=O)N(CCO)CC(=O)N23)o1	4%

Additional results
Structure	VDR inhibitor
CN(C)S(=O)(=O)c1ccc(N2CCCC2)c(C(=O)OCC(=O)N2CCN(c3ccccc3)CC2)c1	0%
N#Cc1nc(-c2cccs2)oc1NCCc1ccccc1	0%
Cn1c(SCC(=O)NC2CC2)nnc1-c1ccccn1	?
COc1cc(C(=O)N2CCN(c3ccc(Nc4ccccc4)nn3)CC2)cc(OC)c1OC	-1%
CCC1CN(C(=O)NCc2cccc(OC)c2)c2ccccc2O1 (centres undefined)	182%&3%[activator]
O=C(CCCCCNC(=O)N1CCn2c1nc1ccccc12)NCc1ccccc1Cl	-3%
O=C(CCN1C(=O)/C(=C/c2ccc(F)cc2)SC1=S)NCCCn1ccnc1	8%
Cc1nnsc1C(=O)N/N=C/c1ccc2ccccc2c1O	-4%
Cc1ccc(-n2nnnc2-c2nc3ccccc3s2)cc1	-17%
CCOC(=O)c1ccccc1NC(=O)CSc1nc2ncccc2[nH]1	1%
CC(=O)O[C@H]1CC2(C)[C@@H](C[C@@H](O)[C@H]3[C@@]4(C)CC[C@@H](O)[C@@H](C)[C@@H]4CC[C@@]32C)C1=C(CCC=C(C)C)C(=O)O (some centres undefined)	1%
CCC(C)NC(=O)Cn1cc2c(n1)CCC(C)C2 (centres undefined)	-5%
Cc1ccc2nc(C3CCCCC3)[nH]c2c1	6%
Oc1ccc(C(=S)N2CCCCC2)cc1Cl	-7%
CCCCC(c1nnnn1CC1CCCO1)N1CCN(c2ccccc2)CC1 (centres undefined)	-12%
CCc1ccc(N2CN=c3s/c(=C\c4ccccc4)c(=O)n3C2)cc1	-7%
O=c1cc(CN2CCN(c3ccc(F)cc3)CC2)nc2sccn12	0%
O=S(=O)(/C=C/c1ccccc1)NC1CCCCCCC1	-11%
COc1ccc(Nc2nc(C)cc(C)c2C(N)=O)c(OC)c1	-13%
O=C(Cn1ccnc1)c1ccc(O)c(O)c1	-21%
CCOc1cc(N2CCOCC2)c(OCC)cc1NC(=O)COc1cccc(CC)c1	1%
O=Cc1ccc(OC(=O)CCCCC(=O)Oc2ccc(C=O)cc2)cc1	-3%
O=[N+]([O-])c1ccc(Cl)cc1P(=O)(O)c1cc(Cl)ccc1[N+](=O)[O-]	-12%
CC1CCCN(C(=O)Cn2c(=O)oc3ccccc32)C1 (centres undefined)	8%
COc1ccc(NC(=O)CCNC(=O)Cn2cnc3ccccc3c2=O)cc1OC	-20%
Cc1ccc2nc(NC(=O)c3ccco3)sc2c1	16%
CO/C([O-])=N/c1c[n+](-c2ccc(Cl)cc2)no1	3%
O=C(Nc1cccc(-c2nn[nH]n2)c1)c1cccs1	-8%
COc1ccc(OC)c(C2C(C(N)=O)=C(C)Nc3nc(-c4cccc(Cl)c4)nn32)c1 (centres undefined)	-7%
COC(=O)CSc1nc2cc3c(cc2cc1C)OCCO3	-11%
COCC(=O)N/N=C(\C)CC(=O)NCc1ccco1	-12%
COc1ccc(CNC(=O)CCCSc2ccccc2)cc1	2%
Cc1ccccc1Cn1c2ccccc2c2cnn(CC(=O)NCc3ccccn3)c(=O)c21	2%&11%
O=C(COc1ccccc1F)NCc1ccc(-n2cccc2)cc1	-16%
Cc1cc2cc(C(c3nnnn3Cc3ccco3)N3CCc4ccccc43)c(=O)[nH]c2cc1C (centres undefined)	-8%
Cc1ccc(NC(=O)c2ccsc2)cc1NS(C)(=O)=O	2%
CCOC(=O)C1=CSC2=NS(=O)(=O)CCN12	7%
CC1=C(C(=O)OCC(C)C)[C@]23C(=O)c4ccccc4[C@@]2(O1)OC(N)=C3C#N	3%
CCOc1ccc(NC(=O)CSc2nnnn2-c2ccc(C(N)=O)cc2)cc1	-8%
CC(C)c1ccccc1OCC(=O)N1CCCCCCC1	-4%
COC(=O)c1ccccc1NC(=O)Cn1cc(S(=O)(=O)Cc2ccccc2F)c2ccccc21	-5%
COc1cccc(NS(=O)(=O)c2ccc3c(c2)NC(=O)C(C)S3)c1 (centres undefined)	-15%
COc1ccc(-n2c(C)cc(C(=O)Cn3nc(C(=O)O)c4ccccc4c3=O)c2C)cc1	6%
NNC(=O)c1cccc(COc2cccc(Br)c2)c1	?
COc1cccc(OC)c1C(=O)NC(C)C12CC3CC(CC(C3)C1)C2 (centres undefined)	-1%
Cn1c(SCC(=O)Nc2cccc(F)c2)nc2c(c1=O)SCC2	0%
CN(c1ccccc1)S(=O)(=O)c1cccc(C(=O)NC2CCCCC2)c1	9%
CCOc1ccc(NC(=O)CN2C(=O)C3CC=CCC3C2=O)cc1 (centres undefined)	-5%
CCOC(=O)c1cc(-c2ccc(Cl)cc2)nc2c1c(C)nn2CCC#N	9%
CCc1nnc(NC(=O)c2ccc(S(=O)(=O)N3CCCCC3C)cc2)s1 (centres undefined)	0%

Other entries.
Structure	VDR inhibitor
Cc1nc2ccc(Br)cn2c1C(=O)N/N=C\c1ccc(C(C)C)cc1	0%
CCOC(=O)N1CCN(c2cc(NCCO)c([N+](=O)[O-])c3nonc23)CC1	2%
Cc1cccc([C@@H]2[C@@H]3C(=O)N(Cc4ccccc4)C(=O)[C@@H]3[C@]3(Cc4ccc(Cl)cc4)C(=O)N(c4ccccc4)C(=O)N23)c1	1%
CC(C)(C)c1nnc2sc(SCC(=O)c3ccc4c(c3)OCCO4)nn2c1=O	-9%
COC(=O)c1ccccc1C(=O)N1CCCC(CNC(=O)c2ccc(F)cc2)C1 (centres undefined)	-14%
CCCc1nnc(NC(=O)CN2C(=O)c3ccccc3S2(=O)=O)s1	-18%
CC1CCN(Cc2c(C(=O)N/N=C/c3ccc(C(C)C)cc3)nnn2-c2nonc2N)CC1	-13%
COC(=O)C1=C(C)N=C2SCCC(=O)N2C1c1ccc(OC(=O)c2ccco2)cc1 (centres undefined)	-17%
CN(C)S(=O)(=O)c1ccc(NCC2COc3ccccc3O2)c([N+](=O)[O-])c1 (centres undefined)	?
NC(=O)c1ccc(Nc2nnc(-c3ccc(O)cc3)c3ccccc23)cc1	2%
COc1ccc(CNS(=O)(=O)c2cc3c4c(c2)C(C)C(=O)N4CCC3)cc1 (centres undefined)	7%
CCOC(=O)c1cnc2c(c(C)nn2C)c1Oc1ccc(OC)cc1	-22%
COc1ccc(N2C(=O)CC(N3CCN(c4nc5ccccc5s4)CC3)C2=O)cc1 (centres undefined)	0%
Cc1ccc2oc(-c3cccc(NC(=O)Cc4ccc(Cl)cc4)c3)nc2c1	-20%
